Calb FLC = C. albicans growth inhibition with fluconazole, primary screen, CaCi-2 strain, Alamar Blue fluorescence. C. albicans CaCi-2 (fluconazole-resistant clinical isolate) + fluconazole, 48 h. growth inhibition, % (test concentration not listed). actives 0.57% (n = 300,000);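 active means most replicates above 75%; inconclusive means exactly half above 75%; inactive means most below 75%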;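 further: all wells also contain fluconazole at 8 µg/ml as a sub-toxic cotreatment; 0% = median of DMSO wells and 100% = median of geldanamycin control wells; wells of about 8 µL received 7.5 nL stock; the first replicate is given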
Vif TR-FRET = inhibitors of Vif binding to APOBEC3G peptide, primary screen, biochemical, TR-FRET, GST-Vif 1-94, biotin-A3G peptide, dose response retest (AID 1117319); TR-FRET GST-Vif / biotin-A3G peptide binding; higher % means a stronger effect; test concentration not given here; strong numbers were not always called active; Virion infectivity factor (Human immunodeficiency virus type 1 group M subtype B (isolate …; inhibition, %; hits with a dose series show IC50 in µM; actives 0.57% (n = 260,000);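 active means above the screen mean plus three standard deviations and confirmed in dose response; inconclusive means results disagree or hit not tested in dose response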;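 further: Vif residues 1-94 fused to GST binding biotinylated APOBEC3G peptide 110-148; 0% = full assay without inhibitor and 100% = GST in place of GST-Vif; retest series ran down from 100 µM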
MLL AF4-AF9 inh = inhibitors of AF4 peptide binding to AF9, primary screen, biochemical, AlphaScreen, biotin-AF4 peptide, FLAG-AF9, single point; Protein AF-9 (Homo sapiens), P42568; AID 651704, 2012; actives 0.47% (n = 350,000); inhibition, % at 10 µM;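 active means every replicate reaching a set inhibition limit, whatever the replicate mean, cut at about 25% in these data; inconclusive means mean inhibition reaches that limit but some replicates miss it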;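 further: 0% = plate neutral control median and 100% = total signal loss; the record names both 10 and 1 µM as test concentration; the first replicate is given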
RanGTP-Imp inh = inhibitors of RanGTP-importin-beta interaction, primary screen, biochemical, FRET, CFP-Ran, YFP-importin-beta, homogeneous; Ran GTPase (GTP-bound) - importin-beta complex; cell-free CFP-Ran/YFP-importin-beta FRET ratio; inhibition, % (test concentration not listed); actives 1.1% (n = 300,000);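 active means most replicates above 15%; inconclusive means exactly half above 15%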;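 further: 0% = DMSO wells and 100% = Ran loaded with GDP instead of GTP; wells of about 40 µL received 100 nL stock; the first replicate is given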
LANA-H2B inh = blockers of LANA interaction with H2A/H2B – biochemical, FP readout, HTS, primary screen. cell-free LANA-H2A/H2B peptide, fluorescence polarization. inhibition, % (concentration not given with the values). actives 0.6% (n = 320,000). AID 2629, 2010; in the data active means inhibition mostly above about 10%, no sharp cut-off; inactive means mostly below about 6.7%;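 further: stock transfer was 7.5 nL into about 10 µL; 0% = median of vehicle wells and 100% = median of positive control wells; one replicate is shown; the record names a cut of 25% in any replicate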
Target sequence (Q9QR71 whole entry, looked up): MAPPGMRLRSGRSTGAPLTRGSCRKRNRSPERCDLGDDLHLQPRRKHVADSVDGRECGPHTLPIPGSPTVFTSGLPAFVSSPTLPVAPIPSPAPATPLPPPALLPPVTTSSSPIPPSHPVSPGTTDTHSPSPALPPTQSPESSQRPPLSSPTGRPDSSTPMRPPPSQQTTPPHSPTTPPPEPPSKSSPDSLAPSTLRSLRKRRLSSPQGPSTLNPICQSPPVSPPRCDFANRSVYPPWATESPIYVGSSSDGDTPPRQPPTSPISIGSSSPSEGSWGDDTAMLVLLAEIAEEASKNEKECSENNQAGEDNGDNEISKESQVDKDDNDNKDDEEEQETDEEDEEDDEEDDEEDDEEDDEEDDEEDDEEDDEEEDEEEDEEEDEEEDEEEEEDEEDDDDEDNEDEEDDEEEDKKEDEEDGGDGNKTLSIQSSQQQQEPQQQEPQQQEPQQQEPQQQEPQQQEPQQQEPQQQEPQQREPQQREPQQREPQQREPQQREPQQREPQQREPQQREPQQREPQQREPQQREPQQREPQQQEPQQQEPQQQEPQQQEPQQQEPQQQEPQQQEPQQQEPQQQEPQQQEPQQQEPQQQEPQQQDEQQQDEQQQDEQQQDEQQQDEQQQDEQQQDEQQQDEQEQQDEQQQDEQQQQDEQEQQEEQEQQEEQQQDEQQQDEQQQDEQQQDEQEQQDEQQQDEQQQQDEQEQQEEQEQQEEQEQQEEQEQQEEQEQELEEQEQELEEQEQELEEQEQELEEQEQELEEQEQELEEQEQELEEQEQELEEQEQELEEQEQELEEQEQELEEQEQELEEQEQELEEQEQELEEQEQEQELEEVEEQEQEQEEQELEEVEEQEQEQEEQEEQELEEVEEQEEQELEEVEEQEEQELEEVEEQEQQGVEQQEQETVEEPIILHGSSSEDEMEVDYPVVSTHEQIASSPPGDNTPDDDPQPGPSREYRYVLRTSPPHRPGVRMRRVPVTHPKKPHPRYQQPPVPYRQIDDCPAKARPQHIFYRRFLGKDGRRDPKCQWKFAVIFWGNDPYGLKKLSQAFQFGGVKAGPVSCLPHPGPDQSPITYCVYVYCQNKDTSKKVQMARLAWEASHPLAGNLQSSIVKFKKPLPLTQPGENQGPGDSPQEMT
T cruzi repl = inhibitors of intracellular T. cruzi growth, primary screen, luminescence, NIH3T3 host cells | T. cruzi beta-gal in NIH3T3, 90 h | inhibition, % (no concentration beside the values) | actives 1.4% (n = 300,000);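 active means mean inhibition across valid replicates above about 55%, limit read from the data; inconclusive means mean below that limit but half or more replicates reach it; inactive means mean below it, under half of replicates reach it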;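 further: signal also drops with host cell toxicity which is not excluded here; 0% = plate median of DMSO wells and 100% = zero luminescence signal; higher percent means less beta-gal luminescence so fewer parasites; stock transfer was 50 nL into about 50 µL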
A1 inh = caspase 3/7 activation in MEF A1-2A-BIM cells, primary screen, A1 inhibitor project, cell-based, luminescence, HTS. Caspase-Glo 3/7 luminescence, 3 h; percent of clofoctol response, vehicle zero. caspase activation, % (no concentration beside the values). actives 0.066% (n = 330,000). AID 2462, 2010;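 active means over half of replicate activation scores above 10%, or exactly half above 10 with the replicate mean above 10; inconclusive means replicate mean below 10 yet half the replicates above 10; inactive means over half of replicates below 10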;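 further: wells of about 30 µL received 50 nL stock; many hits fall short of the cut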
Beta apoptosis = inhibitors of cytokine-induced beta cell apoptosis, primary screen, luminescence. INS-1E cytokine-induced death, ATP luminescence, 48 h; percent of positive-control rescue, neutral wells zero. protection from apoptosis, % (test concentration not listed). actives 0.8% (n = 300,000). AID 435005, 2010;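 active means all replicates at 75% or more, or half of them and the mean; inconclusive means half reach 75% but not the mean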;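 further: 0% = cytokine-treated negative control wells and 100% = positive control rescue; higher means more ATP so stronger rescue from cytokine killing; wells of about 40 µL received 100 nL stock; the first replicate is given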
* marks the source's active call; other numbers are inactive results; ? = inconclusive; · = not tested or not shown. Not a hit list; 4.3% or so of the library scored in one or more.

1. COc1cccc(C(=O)NC2CCN(CC(=O)NCc3ccccc3OC)CC2)c1
2. Cc1ccc(C(NC(=O)c2ccccc2S(C)(=O)=O)c2ccccc2)cc1 (stereo not given)
3. CCOc1ccc(C(=O)NNC(=O)CN2C(=O)NC3(CCCC3)C2=O)cc1
4. COc1cc(/C=N/NC(=O)c2ccc(-c3ccccc3)cc2)cc(OC)c1OC
5. CCOC(=O)c1cnc2ccc(C(=O)OC)cc2c1NCc1ccco1
6. N#C/C(=C\c1ccncc1)c1nc2c(s1)CCCC2
screen / no. | 1 | 2 | 3 | 4 | 5 | 6
Calb FLC | ? | -8 | · | 9 | 18 | 12
Vif TR-FRET | -2% | · | -4% | 0% | -10% | ·
MLL AF4-AF9 inh | · | 1.6 | -3.2 | · | · | -0.3
RanGTP-Imp inh | -2.4 | 0.4 | · | 0.0 | -4.4 | ?
LANA-H2B inh | 2.2 | -1.0 | -6.0 | -1.3 | · | -2.3
T cruzi repl | -6 | 7 | · | 2 | 11 | 31
A1 inh | -0.5 | 0.5 | 0.0 | 0.0 | · | 0.1
Beta apoptosis | 3 | 1 | -8 | · | · | 3

7. COc1ccc(C(=O)COc2ncnc3cc(Cl)ccc23)cc1
8. N#CC1(NC(=O)CN2C(=O)c3ccc([N+](=O)[O-])cc3C2=O)CCCCC1
9. O=[N+]([O-])c1cc(S(=O)(=O)NC2=NCCCCC2)ccc1NCC1CCCCC1
10. O=C(Nc1ccncc1)Nc1cc(Cl)ccc1Cl
11. O=C(C[n+]1ccc(-c2nnc3n2CCC3)cc1)c1ccc(Cl)c(Cl)c1
12. CC(C)C(=O)Nc1c(-c2ccccc2)c(=O)c2ccccc2n1C
screen / no. | 7 | 8 | 9 | 10 | 11 | 12
Calb FLC | 3 | · | -11 | 43 | 3 | -7
Vif TR-FRET | -12% | 2% | 4% | -1% | ? | 20%
MLL AF4-AF9 inh | -0.6 | -7.8 | 13 | -0.1 | -9.6 | -5.3
RanGTP-Imp inh | 2.0 | -2.0 | 0.0 | 0.6 | 5.4 | -1.7
LANA-H2B inh | 0.2 | 2.4 | 3.8 | 5.0 | 2.7 | -0.5
T cruzi repl | -1 | -11 | 22 | 57* | -6 | ·
A1 inh | 0.3 | 0.4 | 0.4 | 0.9 | 0.4 | 0.5
Beta apoptosis | -6 | 0 | 3 | 9 | -2 | -3

13. COc1cc(C=O)ccc1OCc1c(C)noc1C
14. CC(=O)c1c(NC(=O)c2ccccc2)[nH]c(-c2ccccc2)nc1=S
15. NC(=O)COC(=O)/C=C/c1ccc2ccccc2n1
16. Cc1ccc2oc(C(=O)N3CCN(Cc4nccn4C)CC3)c(C)c2c1
17. COc1ccc(CNC(=O)C2CCC(CNS(=O)(=O)c3ccccc3)CC2)cc1 (stereo not given)
18. COc1cc(COCC(O)CN2CCOCC2)cc(OC)c1OC (stereo not given)
screen / no. | 13 | 14 | 15 | 16 | 17 | 18
Calb FLC | 16 | -4 | 36 | -6 | -6 | -3
Vif TR-FRET | -1% | 10% | -3% | 2% | -5% | 26%
MLL AF4-AF9 inh | · | -1.6 | -1.0 | 3.9 | -3.0 | ·
RanGTP-Imp inh | -0.2 | -0.4 | -4.4 | 1.4 | 1.0 | 4.2
LANA-H2B inh | 3.7 | 1.2 | 0.3 | 1.2 | -0.5 | -9.6
T cruzi repl | -7 | 6 | -7 | 0 | -2 | 3
A1 inh | 0.5 | -0.7 | -6.1 | -0.4 | 0.0 | 0.8
Beta apoptosis | 2 | 1 | -10 | -6 | -6 | 1

19. CC1(C)Cc2c(cnn2-c2ccccc2)C(NC(=O)CCc2ccc(=O)[nH]n2)C1 (stereo not given)
20. CC(C)C(=O)Nc1ccc(N2CCCC2)c(Cl)c1
21. O=[N+]([O-])c1cccc2c1ccc1ncccc12
22. Cc1ccc(S(=O)(=O)Nc2cccc(-c3ccc4nncn4n3)c2)cc1
23. CCOC(=O)C1=C(C)NC(C)=C(C(=O)OCC)C1c1cc(N)ccc1OC(F)F
24. O=C(NCCCN1CCCCC1)c1ccc2c(=O)n(CCc3ccccc3)c(=O)[nH]c2c1
screen / no. | 19 | 20 | 21 | 22 | 23 | 24
Calb FLC | 3 | -10 | 15 | 0 | 0 | -1
Vif TR-FRET | 13% | 11% | 0% | -2% | -1% | -6%
MLL AF4-AF9 inh | -6.2 | 3.6 | 2.9 | 1.3 | · | ·
RanGTP-Imp inh | -11 | -1.1 | 0.6 | -0.8 | 2.9 | 7.6
LANA-H2B inh | -19 | 2.6 | 2.0 | · | 5.5 | 0.7
T cruzi repl | -10 | 0 | 22 | 15 | 31 | 9
A1 inh | -0.2 | 0.5 | 2.2 | 0.7 | -0.1 | -0.7
Beta apoptosis | 4 | 2 | -7 | 12 | -5 | -8

Entries above that contain a nitro group on carbon:
8. N#CC1(NC(=O)CN2C(=O)c3ccc([N+](=O)[O-])cc3C2=O)CCCCC1
9. O=[N+]([O-])c1cc(S(=O)(=O)NC2=NCCCCC2)ccc1NCC1CCCCC1
21. O=[N+]([O-])c1cccc2c1ccc1ncccc12
screen / no. | 8 | 9 | 21
Calb FLC | · | -11 | 15
Vif TR-FRET | 2% | 4% | 0%
MLL AF4-AF9 inh | -7.8 | 13 | 2.9
RanGTP-Imp inh | -2.0 | 0.0 | 0.6
LANA-H2B inh | 2.4 | 3.8 | 2.0
T cruzi repl | -11 | 22 | 22
A1 inh | 0.4 | 0.4 | 2.2
Beta apoptosis | 0 | 3 | -7

3 entries picked at random from those above:
21. O=[N+]([O-])c1cccc2c1ccc1ncccc12
20. CC(C)C(=O)Nc1ccc(N2CCCC2)c(Cl)c1
23. CCOC(=O)C1=C(C)NC(C)=C(C(=O)OCC)C1c1cc(N)ccc1OC(F)F
screen / no. | 21 | 20 | 23
Calb FLC | 15 | -10 | 0
Vif TR-FRET | 0% | 11% | -1%
MLL AF4-AF9 inh | 2.9 | 3.6 | ·
RanGTP-Imp inh | 0.6 | -1.1 | 2.9
LANA-H2B inh | 2.0 | 2.6 | 5.5
T cruzi repl | 22 | 0 | 31
A1 inh | 2.2 | 0.5 | -0.1
Beta apoptosis | -7 | 2 | -5

The results go on:
25. O=C(Cc1cccs1)NNC(=O)c1ccccc1Cl
26. O=C(CC(NS(=O)(=O)c1ccc(Cl)cc1)c1ccco1)NCc1ccco1 (stereo not given)
27. Cc1ccccc1N(CC(=O)NCCSCc1ccccc1)S(C)(=O)=O
28. CCNC(=O)CN(c1ccccc1OC)S(=O)(=O)c1cccs1
29. CC(=O)Nc1cc(-c2nn(C)c(=O)c3ccccc23)ccc1N1CCCCC1
30. Cc1onc(-c2ccccc2Cl)c1C(=O)N1CCN(c2ccccc2)CC1
31. Cc1ccc(OCCCN2CCOCC2)c([N+](=O)[O-])c1
32. COc1ccc(CN2CCN(Cc3csc(C(C)=O)c3)CC2CCO)c(C)c1C (stereo not given)
33. CCN(CC)c1nc(Oc2ccc(C(=O)OC)cc2)nc(N2CCOCC2)n1
screen / no. | 25 | 26 | 27 | 28 | 29 | 30 | 31 | 32 | 33
Calb FLC | · | -11 | 27 | 4 | -5 | 7 | -3 | -3 | 3
Vif TR-FRET | · | 14% | · | -7% | 6% | -3% | -9% | -8% | -2%
MLL AF4-AF9 inh | -2.6 | · | 2.6 | · | · | · | · | 1.9 | -2.0
RanGTP-Imp inh | · | 4.0 | -4.4 | ? | -0.8 | 2.3 | -0.1 | 1.2 | -2.8
LANA-H2B inh | 1.4 | 0.3 | 2.5 | -0.1 | 1.5 | 0.6 | 17 | -2.8 | -5.2
T cruzi repl | · | 3 | -22 | 7 | -1 | -4 | -23 | 55* | 17
A1 inh | 0.5 | 0.9 | 0.9 | -0.6 | 1.1 | 0.8 | 0.4 | 0.4 | 0.1
Beta apoptosis | -2 | -1 | -4 | -4 | 1 | -6 | -5 | 2 | -4

Screens from PubChem BioAssay.
